Compound activity (PubChem BioAssay)
Ecoli rRNA inh: inhibitors of bacterial rRNA selective over humanized ribosomes | E. coli WT GFP vs humanized-ribosome RFP mutants, fluorescence, 24 h; active compounds read low; DMSO median 0, no signal -100 | GFP signal change (wild-type ribosome), % (concentration not given with the values) | 350,000 compounds, 1.6% hits | AID 720706;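 active means significant combined selectivity score with lowered wild-type GFP, culture density cut under 30%, mutant RFP and density less affected; inactive means any of these conditions unmet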; further: one replicate is shown; some compounds called inactive have numbers as strong as hits
FGF22 binding: shifts melting point of recombinant human FGF22 | recombinant FGF22 thermal shift, SYPRO orange fluorescence; percent of sucrose octasulfate shift, DMSO zero | calls only at 9.99 µM | 340,000 compounds, 1.5% hits | AID 651658;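 active means melting point raised past a set limit in the mean and every replicate; three in four hits are not shown here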
Target sequence (Q9HCT0 whole entry, looked up): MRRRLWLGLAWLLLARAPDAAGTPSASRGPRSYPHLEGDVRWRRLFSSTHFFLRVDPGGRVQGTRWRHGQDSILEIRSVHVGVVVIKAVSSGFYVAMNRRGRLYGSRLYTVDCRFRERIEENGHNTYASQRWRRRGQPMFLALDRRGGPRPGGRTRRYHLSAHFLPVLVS
Ecoli rRNA inh OD600: also measured in Ecoli rRNA inh; calls as there; OD600 change, %; measured here: OD600 growth;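 optical density of the mix in the first replicate; 0 = DMSO median and -100 = no signal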
Ecoli rRNA inh RFP: also measured in Ecoli rRNA inh; calls as there; RFP signal change, %; measured here: RFP humanized mutant strains;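 first replicate; 0 = DMSO median and -100 = no signal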
* = called active by the depositor; i = inactive. Only part of the results is shown; the hit share may differ from the screen's.

SMILES	Ecoli rRNA inh	Ecoli rRNA inh OD600	Ecoli rRNA inh RFP	FGF22 binding
Cn1cnc(S(=O)(=O)N2CCCCN3[C@H](C2)[C@@H](c2ccc(-c4ccc(F)cc4)cc2)[C@@H]3CO)c1	2	-5	3.8	i
C[C@@H]1CN([C@H](C)CO)C(=O)CCCn2nncc2CO[C@@H]1CN(C)S(=O)(=O)c1ccc(Oc2ccccc2)nc1	-2	-1	-0.2	i
COCC(=O)N1C[C@@H](C)[C@H](OC)CN(C)C(=O)c2cc(NC(=O)NC(C)C)ccc2OC[C@H]1C	2	2	0.5	i
CS(=O)(=O)N1[C@H](CO)[C@@H](c2ccccc2)C12CN(C(=O)C1CC1)C2	3	5	-2.7	i
CC(=O)N1CCN(c2ccc(N3CCN(C(C)=O)[C@@H](C)C3)c(C)c2)[C@@H](C)C1	4	5	4.6	i
COCC#Cc1cnc2c(c1)C(=O)N([C@H](C)CO)C[C@H](C)[C@H](CN(C)Cc1ccc3c(c1)OCO3)O2	6	22	-0.7	i
C[C@H](CO)N1C[C@H](C)[C@@H](CN(C)Cc2cccnc2)Oc2cc(C#CC3CCCC3)ccc2S1(=O)=O	-13	-17	3.8	i
COc1ccc(CN(C)C[C@@H]2Oc3ccc(NC(=O)Nc4ccc5c(c4)OCO5)cc3C(=O)N([C@@H](C)CO)C[C@H]2C)cc1	-1	-5	-0.2	i
CNC[C@@H]1Oc2ccc(NS(=O)(=O)c3ccc(C)cc3)cc2C(=O)N([C@@H](C)CO)C[C@@H]1C	4	1	1.1	i
COc1ccc2c3c(n(C)c2c1)[C@@H](CO)N(Cc1ccccc1OC)CC31CN(C)C1	11	11	-1.7	i
CCCC(=O)N1CC2(CCN(S(C)(=O)=O)CC2)c2c([nH]c3cc(OC)ccc23)[C@H]1CO	-1	1	0.7	i
CO[C@H]1CN(C)C(=O)c2cc(NC(C)=O)ccc2OC[C@@H](C)NC[C@@H]1C	1	1	-2.2	i
C[C@@H]1CN([C@@H](C)CO)C(=O)c2cc(NC(=O)Cc3ccccc3)ccc2O[C@@H]1CN(C)Cc1ccc(C(=O)Nc2ccccc2N)cc1	0	5	-0.5	i
C[C@H]1CCCCO[C@H](CN(C)C(=O)c2ccccc2)[C@@H](C)CN([C@@H](C)CO)C(=O)c2cc(NC(=O)Cc3ccccc3)ccc2O1	-2	-4	-1.0	i
Cc1ccccc1-c1cccc2c3c([nH]c12)[C@@H]1C[C@H]2[C@@H](C(=O)N1CC3)[C@H](C)ON2C	-12	-13	6.7	i
N#Cc1cccc(C(=O)NCC2CCN(C(=O)C(=O)c3cc4ccccc4o3)CC2)c1	-3	-2	-0.9	i
C[C@H](CO)N1C[C@H](C)[C@H](CN(C)S(=O)(=O)c2ccc(F)cc2)Oc2ccc(NC(=O)Nc3cccc4ccccc34)cc2CC1=O	1	4	-1.6	i
C[C@H](CO)N1C[C@H](C)[C@H](CN(C)Cc2ccc(-c3ccccc3)cc2)Oc2ccc(NC(=O)Cc3ccccc3)cc2CC1=O	0	-3	2.1	i
O=S(=O)(c1ccccc1)N1CCCCN2[C@H](CO)[C@H](c3ccc(C#Cc4ccccn4)cc3)[C@H]2C1	-5	13	9.9	i
CN1c2ccc(-c3ccc(F)cc3)cc2[C@H]2[C@H](CCN2C(=O)Nc2cc(F)ccc2F)[C@H]1CO	-4	1	8.2	i
N#C[C@@H]1[C@@H](c2ccccc2C2=CCCC2)[C@H](CO)N1C(=O)C1CCC1	-7	-8	-4.5	i
COc1cccc(CN(C)C[C@H]2OCc3cn(nn3)CCCC(=O)N([C@@H](C)CO)C[C@H]2C)c1	1	7	0.3	i
C[C@H]1CN([C@@H](C)CO)C(=O)c2cccc(NC(=O)c3ccc(-c4nccs4)cc3)c2O[C@H]1CN(C)S(=O)(=O)c1ccc(F)cc1	-5	-1	-0.5	i
CNC[C@H]1Oc2c(NC(=O)C3CC3)cccc2C(=O)N([C@@H](C)CO)C[C@H]1C	3	6	-2.3	i

Quoted at random: 5 records from the list.
SMILES	Ecoli rRNA inh	Ecoli rRNA inh OD600	Ecoli rRNA inh RFP	FGF22 binding
C[C@H](CO)N1C[C@H](C)[C@H](CN(C)S(=O)(=O)c2ccc(F)cc2)Oc2ccc(NC(=O)Nc3cccc4ccccc34)cc2CC1=O	1	4	-1.6	i
CN1c2ccc(-c3ccc(F)cc3)cc2[C@H]2[C@H](CCN2C(=O)Nc2cc(F)ccc2F)[C@H]1CO	-4	1	8.2	i
C[C@@H]1CN([C@@H](C)CO)C(=O)c2cc(NC(=O)Cc3ccccc3)ccc2O[C@@H]1CN(C)Cc1ccc(C(=O)Nc2ccccc2N)cc1	0	5	-0.5	i
N#Cc1cccc(C(=O)NCC2CCN(C(=O)C(=O)c3cc4ccccc4o3)CC2)c1	-3	-2	-0.9	i
N#C[C@@H]1[C@@H](c2ccccc2C2=CCCC2)[C@H](CO)N1C(=O)C1CCC1	-7	-8	-4.5	i

Going on with the list.
SMILES	Ecoli rRNA inh	Ecoli rRNA inh OD600	Ecoli rRNA inh RFP	FGF22 binding
CC(C)NC(=O)N1C[C@H]2[C@@H](c3ccccc31)[C@@H](CO)N2C(=O)c1ccccc1	-2	3	-2.1	i
CCCN(C(=O)CCc1cn(CCC)c2ccccc12)c1ccc(N(C)c2ccccn2)cc1	1	-13	29	i
C[C@@H]1CN([C@H](C)CO)C(=O)c2c(c3ccccc3n2C)-c2ccccc2CO[C@@H]1CN(C)S(=O)(=O)c1ccccc1C#N	-1	3	0.5	i
COCC(=O)N1C[C@H](C)[C@H](OC)CN(C)C(=O)c2ccc(NC(=O)C3CCC3)cc2OC[C@@H]1C	-2	-13	-1.3	i
C=CCN=C1NC(c2ccc(Cl)cc2)C(C(=O)OC)=C(C)N1Cc1ccccc1C(F)(F)F (stereo not drawn)	-46	-77	-16	i
C[C@H]1CN([C@@H](C)CO)C(=O)c2cccc(NC(=O)C3CCCCC3)c2O[C@@H]1CN(C)C(=O)Nc1cccc2ccccc12	3	-4	0.9	i
C[C@@H]1CN([C@H](C)CO)C(=O)c2cc(NC(=O)Nc3ccc(C(F)(F)F)cc3)ccc2O[C@@H]1CN(C)Cc1ccc(Cl)c(Cl)c1	3	10	0.1	i
CCc1cc2c(nc1CC)CCCN2S(=O)(=O)c1ccc(OC)cc1	-43	-69	-9.0	i
O=C(C[C@H]1C=C[C@H](NC(=O)Nc2cc(F)ccc2F)[C@@H](CO)O1)NCc1ccccn1	0	3	-0.8	i
CCc1c(-c2ccc(Br)cc2)ncn1CCc1ccccc1OC	-56	-78	-16	i
COc1ccc(NC(=O)Nc2ccc3c(c2)C(=O)N([C@@H](C)CO)C[C@@H](C)[C@H](CN(C)C(=O)Nc2ccc(C(F)(F)F)cc2)OCCCC[C@H](C)O3)cc1	1	7	-2.2	i
C[C@H](CO)N1C[C@H](C)[C@@H](CN(C)C(=O)Nc2ccccc2)OCc2ccccc2-c2ccccc2C1=O	4	16	-2.8	i

2 entries from above, with two lines to a compound.
Sequence of screens: Ecoli rRNA inh | Ecoli rRNA inh OD600 | Ecoli rRNA inh RFP | FGF22 binding
CCc1cc2c(nc1CC)CCCN2S(=O)(=O)c1ccc(OC)cc1
→ -43 | -69 | -9.0 | i
O=C(C[C@H]1C=C[C@H](NC(=O)Nc2cc(F)ccc2F)[C@@H](CO)O1)NCc1ccccn1
→ 0 | 3 | -0.8 | i

More entries follow.
SMILES	Ecoli rRNA inh	Ecoli rRNA inh OD600	Ecoli rRNA inh RFP	FGF22 binding
COc1ccc(C(=O)Nc2ccc3c(c2)OC[C@@H](C)N(C(C)=O)C[C@@H](C)[C@@H](OC)CN(C)C3=O)cc1	-2	7	0.3	i
CCCNC(=O)N1C[C@@H](O)COC[C@@H]2O[C@@H](CC(=O)NCc3ccc(Cl)c(Cl)c3)CC[C@H]21	1	3	-1.0	i
CS(=O)(=O)N1[C@H](C#N)[C@H](c2ccccc2-c2ccc(F)cc2)[C@H]1CO	-1	7	-1.0	i
CNC[C@@H]1OCCCC[C@@H](C)Oc2ccc(NC(=O)CCC(F)(F)F)cc2C(=O)N([C@H](C)CO)C[C@@H]1C	4	9	-1.9	i
Cc1ccc(S(=O)(=O)N[C@@H]2CC[C@H](CCNC(=O)Cc3ccccn3)O[C@@H]2CO)cc1	2	-5	-2.3	i
C[C@H]1CN([C@@H](C)CO)C(=O)c2cc(NC(=O)CCC(F)(F)F)ccc2O[C@@H]1CN(C)CC1CC1	3	6	0.4	i
O=C(Nc1cccc(F)c1)N[C@@H]1CC[C@@H](CCNS(=O)(=O)c2cccc(Cl)c2)O[C@@H]1CO	-8	-11	1.2	i
C[C@@H]1CN([C@@H](C)CO)C(=O)c2cccc(NC(=O)C3CCOCC3)c2O[C@@H]1CN(C)C(=O)Nc1ccc(C(F)(F)F)cc1	-3	2	1.4	i
C[C@H](CO)N1C[C@H](C)[C@H](CN(C)C(=O)NC2CCCCC2)Oc2c(NS(=O)(=O)c3cn(C)cn3)cccc2C1=O	2	9	-1.3	i
C[C@H]1CN([C@@H](C)CO)C(=O)c2cc(NC(=O)Cn3cnnn3)ccc2O[C@@H]1CN(C)CC1CCCCC1	3	4	-2.3	i
COc1ccccc1C#Cc1ccc([C@H]2[C@@H](CO)N3CCCCN(S(C)(=O)=O)C[C@@H]23)cc1	0	2	2.6	i
C[C@@H]1CN([C@H](C)CO)C(=O)c2cccc(N(C)C)c2O[C@@H]1CN(C)S(=O)(=O)c1ccccc1	1	-2	-0.8	i
N#C[C@@H]1[C@H](c2ccccc2C2=CCCCC2)[C@H](CO)N1C(=O)Nc1ccccc1F	-6	-10	-0.6	i
C[C@@H]1CN([C@@H](C)CO)C(=O)Cc2cc(N(C)C)ccc2O[C@H]1CN(C)S(=O)(=O)c1cn(C)cn1	3	9	-2.1	i
Cn1cnc(S(=O)(=O)N2C[C@@H](O)COC[C@H]3O[C@@H](CC(=O)NCc4ccc(F)cc4)CC[C@@H]32)c1	3	7	-6.3	i
O=C(Nc1ccccc1)N[C@H]1CC[C@H](CCNC(=O)c2ccccc2F)O[C@@H]1CO	2	3	-2.5	i
CO[C@@H](CN(C)C(=O)C1CCOCC1)[C@@H](C)CN(C(=O)Nc1ccc(F)cc1)[C@@H](C)CO	-1	8	-1.2	i
C[C@@H]1CN([C@@H](C)CO)C(=O)c2cc(C3=CCCC3)cnc2O[C@H]1CN(C)Cc1ccccc1F	-3	-7	1.3	i
O=C(C[C@@H]1CC[C@@H]2[C@H](COC[C@@H](O)CN2Cc2cccc(C(F)(F)F)c2)O1)NCc1ccccc1	-1	-28	1.0	i
Cc1cccc(S(=O)(=O)N2CCCCN3[C@H](C2)[C@H](c2ccc(-c4ccncc4)cc2)[C@@H]3CO)c1	-32	-45	15	i
O=C(c1ccncc1)N1CC2(C1)[C@H](c1ccccc1)[C@@H](CO)N2C(=O)CC1CC1	1	9	-2.8	i
CCNC(=O)C[C@H]1C=C[C@@H](NC(=O)NC2CCCCC2)[C@H](CO)O1	2	5	-2.3	i
CN(C)CCCNC(=O)C[C@H]1CC[C@H](NS(=O)(=O)c2ccccc2)[C@H](CO)O1	2	4	-0.5	i
O=C(Nc1ccccc1)N1CCCCN2[C@@H](CO)[C@@H](c3ccc(-c4ccncc4)cc3)[C@@H]2C1	0	-7	0.4	i
C[C@@H]1CCCCO[C@@H](CN(C)S(C)(=O)=O)[C@H](C)CN([C@@H](C)CO)C(=O)c2cc(NC(=O)Nc3cccc4ccccc34)ccc2O1	-5	-6	2.2	i
CC(C)NC(=O)N[C@@H]1CC[C@H](CCNS(=O)(=O)c2ccc(F)cc2)O[C@H]1CO	1	10	1.8	i
OC[C@H]1[C@H]2c3ccccc3NC[C@H]2N1CC1CCOCC1	-1	-2	-2.5	i
COC(=O)C[C@@H]1C[C@@H]2c3cc(NC(=O)C4CCC4)ccc3O[C@@H]2[C@H](CO)O1	3	7	-0.1	i
Cc1noc(C)c1S(=O)(=O)N(C)C[C@@H]1Oc2ccc(N(C)C)cc2CC(=O)N([C@H](C)CO)C[C@@H]1C	2	-1	0.6	i
CC=Cc1ccc2n(c1=O)C[C@@H]1[C@@H](CO)[C@H](C(=O)N[C@H](C)c3ccccc3)[C@H]2N1CC1CC1 (mixture of isomers)	0	0	-2.5	i
CCS(=O)(=O)Nc1ccc2c(c1)C(=O)N(C)C[C@H](OC)[C@H](C)CN(C(=O)c1ccc3c(c1)OCO3)[C@@H](C)CO2	5	-1	-0.2	i
O=C(C[C@H]1C[C@H]2c3cc(NC(=O)CC4CC4)ccc3O[C@H]2[C@H](CO)O1)NCc1ccc(Cl)cc1	0	1	-2.8	i
CCCNC(=O)N(C)C[C@H]1Oc2ncc(C#CCc3ccccc3)cc2C(=O)N([C@@H](C)CO)C[C@@H]1C	-3	-1	-5.8	i
Cc1ccc(S(=O)(=O)N[C@@H]2CC[C@@H](CC(=O)NCCCN(C)C)O[C@@H]2CO)cc1	1	-1	-1.5	i
O=C(C[C@H]1C[C@@H]2c3cc(NS(=O)(=O)c4ccc(F)cc4)ccc3O[C@@H]2[C@@H](CO)O1)N1CCCCC1	-4	-4	3.4	i
CCCC(=O)Nc1ccc2c(c1)C(=O)N(C)[C@@H]1CC[C@@H](CC(=O)OC)O[C@@H]1CO2	0	0	0.2	i
CC1(C)CC(=O)C=C(C2CC2)C1=O	28	14	1.1	i
C[C@H]1CN([C@@H](C)CO)C(=O)c2cc(NC(=O)CCC(F)(F)F)ccc2O[C@H]1CN(C)C	1	10	0.6	i
COc1cccc(CN(C)C[C@H]2OCc3cnnn3CCCC(=O)N([C@H](C)CO)C[C@H]2C)c1	0	-3	-0.4	i
